Biofilm kill mix: mixtures killing C. albicans biofilm | C. albicans biofilm persisters + clotrimazole, fluorescence viability; primary screen in compound mixtures of four per well | actives 0.02% (n = 120,000) | inhibition, % at 7.6 µM;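 active = inhibition above 30.3% in the primary screen of four-compound pools, then above 30% when the compound was retested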;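 note: compounds exposed to preformed 24 h biofilms for 48 h; the number belongs to the whole pool; some results filed as inactive read as strong as hits; inactives centre near 12; 0% = biofilm with clotrimazole alone and 100% = kill control; retested singly at about 60 µM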
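Test system: C. albicans biofilms. Buffer or medium: RPMI/MOPS medium, pH 7.0. Timing: 48 h compound exposure at 37 °C. Technique: Alamar Blue fluorescence. Evaluation: percent inhibition of biofilm viability.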
* = called active by the depositor; & = joins results of further samples.

SMILES	Biofilm kill mix
COc1ccc(N2CCN(C(CNC(=O)C(C)(C)C)c3cccnc3)CC2)cc1 (centres undefined)	29
NNC(=O)c1ccc(COc2ccc3ccccc3c2)o1	12
CC(C)/C=N/Nc1nc2c(c(=O)n(C)c(=O)n2C)n1C	18
CCCCOc1ccc(C(=O)N/C(=C\c2cccc([N+](=O)[O-])c2)C(=O)OCc2ccco2)cc1	13
O=C(NC(=S)Nc1ccc(S(=O)(=O)Nc2nccs2)cc1)c1ccccc1F	8
CS(=O)(=O)N1CCC(C(=O)N2CCN(C(c3ccccc3)c3ccccc3)CC2)CC1	2
CCOC(=O)CCC(=O)Nc1ccc(S(=O)(=O)N2CCC(C)CC2)cc1	15
CCN(CC(=O)Nc1ccccc1Br)C1CCCCC1	14
O=C(CSc1nnc2ccccn12)NNC(=O)c1ccc([N+](=O)[O-])cc1	12
COC(=O)c1sc(C(C)(C)C)cc1CS(=O)(=O)c1ccc(Cl)cc1	5
COc1ccc(N2C(=O)c3ccccc3NC2c2ccc(OC)c(CN3CCOCC3)c2)cc1 (centres undefined)	9
CCN(CC)S(=O)(=O)c1cccc(-c2nnc(SCC(N)=O)n2N)c1	8
Cc1cc([N+](=O)[O-])nn1CCCC(=O)Nc1c(C)n(C)n(-c2ccccc2)c1=O	16
CCOC(=O)N1CCN(C(=O)C2CCN(CC3CCCCC3)CC2)CC1	12
COC(=O)CCNCCSc1nnc(-c2ccco2)n1Cc1ccccc1	13
Cc1cc(C(=O)COc2cccnc2[N+](=O)[O-])c(C)n1-c1ccccc1F	23
Cn1nc(C(C)(C)C)cc1C(=O)O	-5
C#CCOCCOCCOCCNc1nc(N2CCN(C(=O)[C@H]([C@@H](C)CC)n3cc([C@@H](N)Cc4ccc(O)cc4)nn3)CC2)nc(N2CCN(C(=O)[C@H](Cc3ccc(O)cc3)n3cc([C@@H](N)C(C)CC)nn3)CC2)n1 (some centres undefined)	19
Cc1ccc(-c2c(C(=O)Nc3ccccc3C)c(C)[nH]c(=S)c2C#N)o1	9
Cc1nc2c(ccc3nc(NC(=O)C4CC4)sc32)s1	5
CCOC(=O)c1c(/N=C/c2cc([N+](=O)[O-])ccc2O)sc(C)c1C	1
O=C(COc1ncnc2scc(-c3ccccc3)c12)NCCN1C(=O)CSC1=O	4
CC(NC(=O)C1CCN(S(=O)(=O)c2cnc[nH]2)CC1)c1ccccc1 (centres undefined)	-1
CC1(C)CC(=O)C2=C(C1)N(c1cccc(Cl)c1)C(=O)NC2(C(F)(F)F)C(F)(F)F	12
O=C(CSc1ccccc1C(=O)O)NCc1ccccc1	10

Retrieved by structure from the entries so far (four):
SMILES	Biofilm kill mix
CC(NC(=O)C1CCN(S(=O)(=O)c2cnc[nH]2)CC1)c1ccccc1 (centres undefined)	-1
NNC(=O)c1ccc(COc2ccc3ccccc3c2)o1	12
CC(C)/C=N/Nc1nc2c(c(=O)n(C)c(=O)n2C)n1C	18
Cc1ccc(-c2c(C(=O)Nc3ccccc3C)c(C)[nH]c(=S)c2C#N)o1	9

Going on with the list:
SMILES	Biofilm kill mix
C#CC1(NC(=O)NC(C)(C)C)CCCCC1	13
COc1ccc2c(c1)CCC(C)N2C(=O)C(=O)c1c[nH]c2ccccc12 (centres undefined)	23
CCOc1ccc(NC(=S)Nc2ccc(Br)cc2Cl)cc1	12
CNC(=S)NNC(=O)c1ccccc1F	18
CC(C)Cc1ccc(C(C)C(=O)Nc2ncccn2)cc1 (centres undefined)	-17
CC(C)c1ccc(NC(=O)c2sccc2-n2cccc2)cc1	4
O=C(CCc1ccc(S(=O)(=O)NCc2ccccc2)cc1)NCc1cccnc1	1
COc1ccc2oc(=O)c(-c3nnc(N)s3)cc2c1	8
O=C(CSc1nc2ccccc2[nH]1)Nc1c(F)c(F)c(F)c(F)c1F	11
Cc1ccccc1C(OCCN(C)C)c1ccccc1 (centres undefined)	16&1
Cc1ccccc1-c1cnn(-c2cccc([N+](=O)[O-])c2)c1N	8
CC1(CC(=O)N/N=C/c2ccc(-c3ccc(Cl)cc3)o2)OCCO1	15
O=C(NC(=S)NCc1nc2ccccc2[nH]1)c1ccc(F)cc1	4
O=C(COC(=O)/C=C/c1cccc(C(F)(F)F)c1)Nc1cccc2ccccc12	11
Cc1cccc(SCC(=O)Nc2ccccc2[N+](=O)[O-])c1	21
COC(=O)COc1ccc(NS(=O)(=O)c2cccc([N+](=O)[O-])c2)cc1	16
Cc1nc(SCC(=O)c2ccc(F)c(F)c2)[nH]c(=O)c1Oc1ccc(F)cc1	19
O=Cc1sc(=O)n(Cc2cccc(C(=O)O)c2)c1Cl	9
Cc1cc(NS(=O)(=O)c2ccc(NC(=S)NCc3ccccc3)cc2)no1	16
Cn1nc(C(C)(C)C)cc1C(=O)NNC(=O)c1ccccc1Cl	15
COC(=O)Cn1c(=NC(=O)CN2C(=O)CCC2=O)sc2cc(S(N)(=O)=O)ccc21	9
C=CCN(CC=C)CCOc1cc(C)ccc1[N+](=O)[O-]	18
CC1CN/C(=C\C(=O)c2ccc(Br)cc2)C(=O)N1 (centres undefined)	18
COc1ccc(C(=O)CC(=O)C(=O)Nc2cc(Cl)c(OC)cc2OC)cc1	16
CCCN(C(=O)C(=O)Nc1ccc2nc3n(c(=O)c2c1)CCCCC3)c1ccc(OCC)cc1	18
SMILES	Biofilm kill mix
O=C1CCc2ccc(NC(=O)C3CC3)cc2N1	1
Cc1cccc(NS(=O)(=O)c2cnc(Cl)c(Br)c2)n1	15
CCSC(=S)c1c(C)[nH]n(-c2ccccc2)c1=O	19
COc1ccc(S(=O)(=O)CCc2nnc(NC(C)=O)s2)cc1	8
Cc1cc(=O)oc2c1c(C)nn2-c1ccc(Br)cc1	19
O=[N+]([O-])c1ccccc1O[C@@H]1O[C@H](CO)[C@H](O)[C@H](O)[C@H]1O	9
Cc1cc(N)n(-c2ccc(Cl)cc2)n1	5
CCOC(=O)c1c(CSc2ccccc2)n(C)c2ccc(O)c(CN3CCOCC3)c12	15
CCN(CC)c1ccc(C(=O)OCC(=O)Nc2cc3oc4ccccc4c3cc2OC)cc1	9
CN1C(C(=O)NCc2ccccc2)CC2Cn3c(nc4ccccc43)C21 (centres undefined)	17
Cc1cccc(N2N=C(C(=O)Nc3nc(C)cs3)CCC2=O)c1	9
O=C(CSc1nc2ccsc2c(=O)n1Cc1ccc(C(=O)O)cc1)NCC1CCCO1 (centres undefined)	7
COc1ccc(NS(=O)(=O)c2cccc(C(=O)N/N=C/c3cn(-c4ccccc4)nc3-c3ccccc3)c2)cc1	16
N#CCCN(Cc1ccncc1)C(=S)NC1CC2C=CC1C2 (centres undefined)	4
COc1ccccc1CN1C[C@@H]2C[C@@H](c3cccc(C)c3)N3CCC[C@@]23C1=O	11
CC(C)CC(=O)OC1C(N2CCOCC2)c2c(ccc(/C=C/C(=O)N3CCOCC3)c2O)OC1(C)C (centres undefined)	14
CCOc1ccccc1N(CC(=O)Nc1ccc(S(=O)(=O)N2CCOCC2)cc1)S(=O)(=O)c1ccc(Cl)cc1	27
Fc1ccccc1/C=N/n1c(-c2cccnc2)n[nH]c1=S	16
CCOCCOC(=O)COc1ccc2c(-c3ccccc3)cc(=O)oc2c1	7
COC(=O)C(C(=O)Nc1ccccc1C)C1CCCCCC1 (centres undefined)	24
CCOc1cc(NC(=S)NCCCN2CCOCC2)c(OCC)cc1NC(=O)C1CCCCC1	30
Cn1nc(C(F)(F)F)c(-c2ccc(F)cc2)c1NC(=O)c1cccnc1	20
Cc1[nH]n(-c2ccc([N+](=O)[O-])cc2)c(=O)c1C=NCCc1c(C)[nH]c2ccccc12	3
Cc1nnc2ccc(-c3cccc(NC(=O)Cc4cccs4)c3)nn12	9
O=c1c2ccccc2nc(-c2cccs2)n1-c1cccc2ccccc12	10

Some of the entries above, reformatted:
CCN(CC)c1ccc(C(=O)OCC(=O)Nc2cc3oc4ccccc4c3cc2OC)cc1
  Biofilm kill mix = 9

Cc1cc(=O)oc2c1c(C)nn2-c1ccc(Br)cc1
  Biofilm kill mix = 19

CCSC(=S)c1c(C)[nH]n(-c2ccccc2)c1=O
  Biofilm kill mix = 19

CCOC(=O)c1c(CSc2ccccc2)n(C)c2ccc(O)c(CN3CCOCC3)c12
  Biofilm kill mix = 15

Returning to the listing, starting two compounds before the break.
SMILES	Biofilm kill mix
Cc1nnc2ccc(-c3cccc(NC(=O)Cc4cccs4)c3)nn12	9
O=c1c2ccccc2nc(-c2cccs2)n1-c1cccc2ccccc12	10
N=c1oc2cc(O)ccc2cc1C(=O)Nc1ccccn1	9
NC1=NC(=O)C2(COC(c3ccccc3Cl)OC2)S1 (centres undefined)	9
CC(=O)Nc1ccc(NC(=O)c2ccccc2S(=O)(=O)c2ccc([N+](=O)[O-])cc2)cc1	7
NC(N)=NS(=O)(=O)c1ccc(NC(=S)NC(=O)c2ccc3c(c2)OCO3)cc1	15
CCCCCOC(=O)Cn1c(=O)oc2ccc(C)cc21	6
CCCCN(C)C(=O)c1nc2ccccn2c1CN1CCN(c2ncccn2)CC1	9
COc1ccc(S(=O)(=O)N2CCCCCC2)cc1N	17
COc1ccc(CN2CCNC(=O)C2CC(=O)NCCSc2nccn2C)cc1OC (centres undefined)	13
COc1ccc(/C=N/OC(=O)Nc2ccccc2OC)cc1	29
Cc1ccc(C)c(C(=O)CSc2nc3ccccc3c(=O)[nH]2)c1	1
CCCOc1ccc(/C=N/Nc2ccc(C(=O)O)cc2)c(OCCC)c1	14
C/C(Cn1nnc2ccccc21)=N\NC(=O)c1cccc(Br)c1	18
O=C(N/N=C/C=C/c1ccco1)c1ccncc1	20
Cc1ccc(C)c(OCCn2cc(/C=C(\C#N)C(=O)NCc3ccco3)c3ccccc32)c1	6
Cc1ccc(C)c(N2CC(C(=O)O)CC2=O)c1 (centres undefined)	3
CCC(=O)c1ccc(O)cc1	5
CN1CCN(Cc2nc(-c3cccs3)no2)CC1c1ccccc1 (centres undefined)	-5
C/C(=N\NC(=O)c1ccc(C)cc1C)c1ccc(-n2ccnc2)cc1	11
CC(C)(CCl)C(=O)Nc1ccc(OC(F)(F)F)cc1	-1
COc1ccc(N2CCN(C(=O)c3ccc(Cl)c(S(=O)(=O)N4CCCC4)c3)CC2)cc1	12
CC(C)(C)c1ccc(C(=O)Nc2ccccc2Cl)cc1	9
O=C(O)CCS(=O)(=O)c1ccc(-c2ccccc2)cc1	-3
CN(CCO)S(=O)(=O)c1ccc2c(c1)C(=NNC(N)=O)c1cc(S(=O)(=O)N(C)CCO)ccc1-2	8
CC1CCN(C(=O)Cn2c(=O)n(-c3ccc(F)cc3)c(=O)c3sccc32)CC1	5
O=C(Nc1ccccc1)C1CCCN(C(=O)c2ccc(Cl)cc2)C1 (centres undefined)	2
SMILES	Biofilm kill mix
O=c1cc(CSc2nc(NCc3ccccc3)c3ccccc3n2)nc2ccc(Cl)cn12	-2
Cc1cc(C)n(CC(=O)N/N=C/c2cc(Br)cc([N+](=O)[O-])c2O)n1	-2
O=c1c(Cc2ccc(Cl)cc2Cl)c(O)ccn1Cc1ccncc1	16
CCN(CC(=O)NCc1ccc(F)cc1)CC(=O)Nc1ccc(S(=O)(=O)N2CCCC2)cc1	8
CC1(C(=O)Nc2cccc(S(=O)(=O)N3CCOCC3)c2)Cc2ccccc2C(=O)O1 (centres undefined)	18
CCCCCCCN=CC1=C(O)CC(c2ccccc2)CC1=O (centres undefined)	9
CC(=O)c1c(Nc2ccccc2)sc(C(=O)c2ccccc2)c1C	17
CCN(CC)S(=O)(=O)c1cccc(C(=O)N/N=C/c2ccccc2OCC(=O)O)c1	6
S=c1[nH]nc(CCc2ccccc2)n1-c1ccc(Cl)cc1	10
CC(C)(C)Nc1nc2ccc([N+](=O)[O-])cc2o1	21
CC#CCN1c2ccccc2[C@]23C[C@@H](C(=O)OC)N(C(=O)OCC)C2=NC(C(=O)OC)=C(C(=O)OC)[C@H]13	11
Cc1ccc(-n2nc3c(Cl)nnc(C)c3c2C)cc1	1
COc1ccc(C(CNC(=O)c2cc(SC)ccc2Cl)N(C)C)cc1 (centres undefined)	7
Cc1ccc(S(=O)(=O)N2CCN(C(C)C)CC2)cc1	9
Fc1ccc(NC2=NCCCCC2)cc1	10
CC1(C)CC(=O)C2=C(C1)Nc1ccccc1NC2c1cccnc1 (centres undefined)	19
COc1ccc2nc(C)cc(SCC(=O)N3CCCCC3)c2c1	3
CCCCNc1ccc2nsnc2c1[N+](=O)[O-]	8
CCCNC(=O)c1ccc(C2SCC(=O)N2CCc2ccccc2)cc1 (centres undefined)	9
S=C(NC1CCCCCC1)NC1CCCC1	8
C=CCNc1nnc(Sc2ncccc2[N+](=O)[O-])s1	17
O=C(Nc1ccon1)c1cccc(S(=O)(=O)N2CCCCC2)c1	12
O=C(/C=C/c1ccccc1)NC(=S)NNS(=O)(=O)c1ccccc1	15
O=C(c1ccc2c(c1)N(Cc1ccccc1F)C(=O)c1ccccc1S2)N1CCOCC1	26
O=C(O)c1cccc(NC(=O)c2ccc(S(=O)(=O)c3ccccc3)cc2)c1	17

A draw from above in order of length of the SMILES, rising.
SMILES	Biofilm kill mix
S=C(NC1CCCCCC1)NC1CCCC1	8
O=c1c(Cc2ccc(Cl)cc2Cl)c(O)ccn1Cc1ccncc1	16
CCN(CC)S(=O)(=O)c1cccc(C(=O)N/N=C/c2ccccc2OCC(=O)O)c1	6

The results go on:
SMILES	Biofilm kill mix
O=C(Nc1nsc(-c2ccccc2)n1)c1ccc(F)cc1	7
Cc1cc(C)c2c(c1)-c1c(ssc1=S)C(C)(C)N2C(=O)CN1C(=O)c2ccccc2C1=O	12
COc1ccc(CN2CCN(Cc3nc4ccccc4s3)CC2CCO)c(C)c1C (centres undefined)	21
CCC(O)CC(C(=O)NNc1ccccc1)C(=O)NNc1ccccc1 (centres undefined)	12
COCCNc1nc(-c2cc(-c3ccccc3)on2)cc(C(C)C)n1	19
O=C(Cc1cccs1)N/N=C/c1ccc(OCc2ccccc2)cc1	19
CCN(CC)c1ccc(/C=N/NC(=O)c2ccoc2C)cc1	17
CC(C)CC(=O)NC(=S)Nc1ccc(CN2CCOCC2)cc1	14

This is a subset; the hit share may differ from the screen's.
